Screening data as filed in PubChem.
2A StopGo: High Throughput Screening for Foot and Mouth Disease Virus Antivirals; human cells with a luciferase reporter of 2A StopGo recoding; control for the full effect not named in the record; Potency, µM (highest dose often 57.9 µM), for the others: at the top dose signal change, negative = less light; hit rate 1.2% among 410,000; AID 1159524, 2015; active = well fitted falling curve with a large enough effect; inconclusive = small, poorly fitted or top-dose-only effect; inactive = no such curve, though single readings can be large or run the other way; tested in HEK293T cells; also: % is scaled to controls: 0 for no effect and ±100 for the full control effect; nearly all actives have a fitted effect of over 45% in size; luciferase light after 4 h
MARV entry inh: qHTS for inhibitors of binding or entry into cells for Marburg Virus. Marburg virus pseudotyped entry inhibition, cell reporter; control for the full effect not named in the record; about a third of the inactives were read at about 46 µM. Potency, µM (doses to about 37.8 µM), for inactives: at the highest dose activity change, negative = inhibition, hits mostly inhibitors. hit rate 1.8% among 300,000. AID 540276, 2011; active = well fitted inhibition curve with a large enough effect; inconclusive = small, poorly fitted or top-dose-only effect, or effect the other way; inactive = flat fitted curve, though single readings scatter; tested in HEK293 cells; about a fifth of its hits are not listed in these tables; also: % is scaled to controls: 0 for no effect and ±100 for the full control effect; luciferase read-out
Cruzain noTriton: qHTS Assay for Promiscuous and Specific Inhibitors of Cruzain (without detergent). purified cruzain, Z-FR-AMC fluorescence, no detergent. Cruzipain (Trypanosoma cruzi), P25779. Potency, µM, for the others: max response, negative = inhibition, most hits filed as inhibitors. hit rate 2.3% among 200,000;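 also: plate controls were enzyme without inhibitor for no effect and buffer without enzyme for full effect; nearly all actives have a fitted effect of over 40% in size; top concentration of the series not given in the record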
Target sequence (P25779 123-467 limits assumed): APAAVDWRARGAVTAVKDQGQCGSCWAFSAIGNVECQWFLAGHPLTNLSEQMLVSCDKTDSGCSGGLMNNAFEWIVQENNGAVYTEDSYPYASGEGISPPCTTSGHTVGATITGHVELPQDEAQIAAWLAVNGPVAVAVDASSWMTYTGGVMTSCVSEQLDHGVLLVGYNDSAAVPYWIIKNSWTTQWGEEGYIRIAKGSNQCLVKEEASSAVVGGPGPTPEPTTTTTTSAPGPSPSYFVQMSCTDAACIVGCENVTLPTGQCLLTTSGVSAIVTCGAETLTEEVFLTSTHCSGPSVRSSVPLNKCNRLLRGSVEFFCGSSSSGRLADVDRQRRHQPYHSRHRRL
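Detergent-free condition (0.00005% Triton X-100) in acetate buffer pH 5.5 with DTT. 1.5 nM enzyme and compound were pre-mixed 15 min, then 2 uM Z-FR-AMC substrate added; reaction progress from fluorescence change between first and third reads (60 s).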
RE007 growth inh: qHTS Assay for Inhibitors of the HIV-1 protein Vpr; Potency, µM (series often up to 92.2 µM), inactives show top-dose activity change, negative = less growth; hit rate 0.21% among 360,000; S. pombe RE007 Vpr strain, BacTiter-Glo ATP luminescence, 24 h; control for the full effect not named in the record; active = well fitted falling curve with a large enough effect; inconclusive = small, poorly fitted or top-dose-only effect; inactive = no such curve, though single readings can be large or run the other way;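 also: % is scaled to controls: 0 for no effect and ±100 for the full control effect; nearly all actives have a fitted effect of over 50% in size; the assay follows cell death caused by Vpr and the record does not say whether a fall means rescue or toxicity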
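Fission yeast RE007 carrying one integrated HIV-1 vpr copy, seeded at OD 0.01 in PMG+AL medium with 23 nL pinned compound. Grown 24 h at 30 degrees; viability read by BacTiter-Glo luminescence after 5 min.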
NS1 inh: qHTS Assay for Inhibitors of Influenza NS1 Protein Function; S. cerevisiae slowed by influenza A NS1, growth recovery by OD600; hit rate 0.4% among 270,000; Potency, µM (top dose mostly 46.1 µM), for the others: at the highest dose activity, positive = more growth; active means well fitted rising curve with a large enough effect; inconclusive means small, poorly fitted or top-dose-only effect; inactive means no such curve, though single readings can be large or run the other way; also: nearly all actives have a fitted effect of over 50% in size
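Compounds were scored for reversing the slow growth caused by influenza A NS1 in S. cerevisiae, measured by optical density at 600 nm. Assay medium contained 2% galactose at pH 6.0; NS1-free yeast of the same strain were the positive control.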
Lassa entry inh: qHTS for Inhibitors of binding or entry into cells for Lassa Virus; AID 540256, 2011; Lassa virus pseudotype entry inhibition, cell reporter; control for the full effect not named in the record; hit rate 1.2% among 300,000; Potency, µM (top dose mostly 37.9 µM), without a hit: at the top dose activity change, negative = inhibition, hits mostly inhibitors; active means well fitted inhibition curve with a large enough effect; inconclusive means small, poorly fitted or top-dose-only effect, or effect the other way; inactive means flat fitted curve, though single readings scatter; tested in HEK293 cells; also: % is scaled to controls: 0 for no effect and ±100 for the full control effect; nearly all actives have a fitted effect of over 50% in size; luciferase read-out
Cruzain Triton: qHTS Assay for Promiscuous and Specific Inhibitors of Cruzain (with detergent); purified cruzain, Z-FR-AMC fluorescence, 0.01% Triton; hit rate 0.43% among 200,000; Potency, µM, inactives show max response, negative = inhibition, most hits filed as inhibitors; Cruzipain (Trypanosoma cruzi), P25779;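 also: plate controls were neutral wells for no effect and buffer without enzyme for full effect; nearly all actives have a fitted effect of over 40% in size; top concentration of the series not given in the record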
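Sodium acetate buffer (100 mM, pH 5.5) containing 5 mM DTT and 0.01% Triton X-100 hosted 1.5 nM cruzain and test compound for 15 min at room temperature. Cleavage of 2 uM Z-FR-AMC was then tracked by fluorescence.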
SARS PLpro yeast: qHTS of Yeast-based Assay for SARS-CoV PLP; S. cerevisiae expressing SARS-CoV PLpro, growth rescue; control for the full effect not named in the record; Potency, µM (top dose mostly 32.9 µM), for the others: top-dose activity, positive = growth rescue; hit rate 0.19% among 330,000; AID 485353, 2010; active means well fitted rising curve with a large enough effect; inconclusive means small, poorly fitted or top-dose-only effect; inactive means no such curve, though single readings can be large or run the other way; also: 0% is about no effect; nearly all actives have a fitted effect of over 55% in size; growth read by luminescence after 48 h
* marks the source's active call; other numbers are inactive results; ? = inconclusive; . = not tested or not shown; & = joins results of further samples; [ ] = dose if it differs, or a comment. Unless noted, calls follow the shape of the dose curve; as a rule, active = well fitted curve in the direction sought with a large enough effect; inconclusive = small, poorly fitted or top-dose-only effect, or another doubt; inactive = no such curve, though single readings can be large; an effect the other way counts as inactive or inconclusive. Potency is read from the fitted curve at half-maximal effect. Outcome played no part in choosing rows; about 4.7% have a hit in one of these screens.

SMILES | 2A StopGo | MARV entry inh | Cruzain noTriton | RE007 growth inh | NS1 inh | Lassa entry inh | Cruzain Triton | SARS PLpro yeast
CC(C)C(O)(C#CCN1CCCC1)c1ccccc1 (configuration not stated) | -12% | -5% | 1% | 5% | 6% | 2% | 6.4% | 0%
O=C(Nc1ccccc1OC(F)F)c1oc2ccccc2c1COc1ccccc1 | 10% | 9% | -5% | 7% | -5% | 1% | 5.5% | 28%
COc1ccc(CNC(=O)CCc2nc(-c3ccc(OC)cc3)no2)cc1 | 40%[activator] | ? | -1% | . | . | ? | -2.2% | .
COc1cccc(-n2c(SCC(=O)Nc3cc(C)on3)nc3c([nH]c4ccccc43)c2=O)c1 | -28% | -34%&-34% | 9% | -12% | ? | -17% | -5.7% | -6%
O=S(=O)(c1ccc(-c2cnc(C3CC3)o2)cc1)N1CCN(c2ccccc2F)CC1 | -8% | . | -6% | . | . | -16%[46.1 µM] | 0.3% | .
CC(C)CCNC(=O)/C=C/c1ccc(Br)cc1 | 20% | ? | -16% | . | -23% | 1.6µM* | -4.9% | -25%
C[N+]1(CC(=O)Nc2ccc(F)cc2)CCN(C(=O)c2ccco2)CC1 | 23% | -1% | -7% | -6% | -5% | 2% | 0.4% | 2%
O=C(CCC(=O)Nc1ccccc1)NNS(=O)(=O)c1ccc(Cl)cc1 | 20% | . | . | 5% | 11% | . | . | 7%
CCC(NS(=O)(=O)c1ccc(C)cc1)C(=O)N1CCC2(O)CCCCC2C1 (configuration not stated) | -21% | 40% | 5% | 0% | -3% | 2% | 2.6% | ?
N#Cc1c(NC(=O)CSc2nc(-c3ccccc3)cc(C(F)(F)F)n2)sc2c1CCC2 | -19% | ? | ? | -11% | -1% | ? | -9.0% | 3%
O=C(Nc1ccc(SC(F)F)cc1)C1CC(=O)N(Cc2ccccc2)C1 (configuration not stated) | 20% | 5% | . | 28% | 7% | 3% | . | 1%
CCCCC(CC)C(=O)Oc1ccc(O)c(C(C)(C)C)c1 (configuration not stated) | 14% | ? | . | ? | -44% | 10µM* | . | -5%
COc1cccc(N2CCN(C(=O)c3ccc(CS(=O)c4ccccc4C)o3)CC2)c1 (configuration not stated) | -28% | -45%[46.1 µM] | . | -3% | 15% | ? | . | -3%
COC(=O)c1sc(S(=O)(=O)Nc2ccc(C)cc2)c(C(=O)OC)c1C | 103%[activator] | -2% | -9% | -6% | -14% | 8% | -9.9% | 25%
COCC(C)n1c(C)cc(C(=O)CSc2nc3ccccc3c(=O)[nH]2)c1C (configuration not stated) | ? | ? | 8% | -20% | 4% | ? | -1.1% | 3%
Cc1oc2c(c(C)cc3oc(=O)c(CC(=O)NCCc4ccccc4)c(C)c32)c1C | -11% | ? | 2% | . | . | 12%[46.1 µM] | 2.3% | .
O=C(c1ccco1)n1nc(NCc2ccccc2)nc1NCc1ccccc1 | -12% | -22%[46.1 µM] | 4% | 6% | -48% | -16% | -5.1% | -3%
COc1ccccc1OCC(=O)NNC(=O)C(=O)N1CCCC1 | -12% | 14% | -8% | -8% | 12% | 16% | -1.4% | 14%
Cc1ccc(NC(=O)c2cc(NC(=O)C3CC=CCC3C(=O)O)ccc2N2CCOCC2)cc1 (configuration not stated) | 29% | 11% | 25% | -29% | 7.9µM* | 18% | 1.7% | -1%
CC(CN1CCOCC1)C(=O)c1ccccc1 (configuration not stated) | 2% | 3% | -14% | -6% | -11% | 14% | 1.4% | 6%
COCCn1c(C)cc(C(=O)COC(=O)CNC(=O)c2ccccc2)c1C | 25µM* | -7%[46.1 µM] | -30% | 2% | 2% | -18% | ? | 17%
Cc1ccc(N(CC(=O)NCc2ccc(F)cc2)S(=O)(=O)c2c(C)n[nH]c2C)cc1 | -5% | . | . | 9% | ? | . | . | 20%
COc1ccccc1CNC(=O)c1oc2ccc(S(=O)(=O)N3CCOCC3)cc2c1C | ? | ? | . | 10% | -5% | -16% | . | -6%
CCc1c(C)sc2c1CCN(Cc1ccccc1C#N)C2c1ccccc1 (configuration not stated) | -6% | . | -11% | . | . | -4%[46.1 µM] | -3.3% | .
O=C1c2ccccc2C(=O)N1CCn1nc(Cl)nc1Cl | 0% | 11% | -4% | 23% | 0% | 11% | 2.5% | -4%
New compounds follow:
SMILES | 2A StopGo | MARV entry inh | Cruzain noTriton | RE007 growth inh | NS1 inh | Lassa entry inh | Cruzain Triton | SARS PLpro yeast
O=C(O)c1ccccc1NCc1cccs1 | 3% | . | . | -12% | -64% | . | . | -6%
CCCCn1c(N)c(N(CCC(C)C)C(=O)COC(=O)c2ccccc2)c(=O)[nH]c1=O | -12% | -16%[46.1 µM] | . | 26% | . | 3% | . | -2%
CC(=O)Nc1ccc(NS(=O)(=O)c2cc(Cl)ccc2Cl)cc1 | 2% | -2%[46.1 µM] | . | -11% | -8% | -2% | . | 1%
CC(C)Oc1ccc(N2CC(C(=O)NC3=NCCS3)CC2=O)cc1 (configuration not stated) | -4% | . | . | 1% | -4% | . | . | 0%
NC(=O)c1c(NC(=O)c2cccc(N3C(=O)CCC3=O)c2)sc2c1CCCCC2 | 26% | ? | . | -10% | -10% | ? | . | -2%
Cc1ccc(C)c(N(CC(=O)N/N=C/c2ccc(-c3ccc([N+](=O)[O-])cc3)o2)S(=O)(=O)c2ccccc2)c1 | -2% | ? | ? | 8% | -3% | -26% | 0.3% | -2%
Nc1ccccc1SCC(=O)Nc1ccc2c(c1)OCCO2 | 43%[activator] | ? | . | -12% | 2% | ? | . | -4%
Cc1c2cnn(CC(=O)N3CCN(c4ccc(F)cc4)CC3)c(=O)c2c(C)n1Cc1ccc(F)cc1 | ? | 0%[46.1 µM] | 1% | . | . | 2%[46.1 µM] | -1.9% | .
O=C(CN1C(=O)c2ccccc2C1=O)Nc1cc(C(=O)O)cc(C(=O)O)c1 | -16% | . | . | 3% | 3% | . | . | -2%
COc1ccc(Cc2nc(=S)[nH][nH]2)cc1Br | -5% | -2%[14.2 µM] | . | 8% | 9% | -8% | . | 0%
CCC(=O)Nc1ccc(S(=O)(=O)Nc2ccccn2)cc1 | -7% | 16%[46.1 µM] | . | 16% | 5% | 1% | . | 0%
Nn1c(SCC(=O)Nc2ccc(S(N)(=O)=O)cc2)nnc1-c1ccco1 | -25% | 5% | . | 4% | -6% | -2% | . | -7%
Cc1nnsc1C(=O)N1CCCC(N2CCN(c3ccc(F)cc3)CC2)C1 (configuration not stated) | -16% | 3% | . | -15% | 5% | 12% | . | 0.71µM*
COC(=O)COc1ccc(/C=C2\C(=O)NC(=S)N(c3ccc(C)cc3)C2=O)cc1OC | -27% | . | . | 10% | -2% | . | . | 1%
Cc1cc2ncn(C(=O)N3CCCCCC3)c2cc1C | 54%[activator] | 2% | 5% | 3% | 3% | 19% | -4.2% | 15%
O=C(CC1(O)C(=O)Nc2ccccc21)c1cccc(-n2cccc2)c1 (configuration not stated) | 5% | . | . | -6% | 5% | . | . | 0%
COc1ccc(-c2noc(CCC(=O)NCCc3ccccc3)n2)cc1 | 4% | ? | . | 1% | -7% | -9% | . | -3%
CCOC(=O)C(O)(c1ccc(N(C)C(=O)c2ccc(Cl)c(Cl)c2)cc1)C(F)(F)F (configuration not stated) | ? | ? | -3% | 10% | -21% | ? | -5.4% | ?
CN1CCN(c2nc([N+](=O)[O-])nn2C)CC1 | -4% | 8% | 12% | 0% | 9% | -12% | -1.3% | -3%
Cc1cccc2c(N=O)c(O)[nH]c12 | -9% | . | . | -2% | 5% | . | . | -1%
CSc1nc2c(c(=O)[nH]1)C(c1cccc(Cl)c1)CC(=O)N2 (configuration not stated) | 1% | 6%[46.1 µM] | . | 10% | . | 2% | . | -1%
CCCC1=Nc2cc(C(=O)NCCOC)ccc2Sc2ccccc21 | -13% | ? | ? | . | . | ? | -3.8% | .
Cc1onc(-c2c(Cl)cccc2Cl)c1C(=O)ONC(=O)c1ccccc1 | -24% | . | . | -19% | 2% | . | . | -1%
Cc1ccc(NC(=O)CCc2nc3sc4c(c3c(=O)[nH]2)CCCC4)nc1 | -5% | 7% | . | 16% | . | ? | . | -3%
CN1CCN(c2c[nH]c(=O)[nH]c2=O)CC1 | -11% | -3%[46.1 µM] | 18% | -4% | 5% | 8% | -0.6% | 4%
Remaining list, next part.
SMILES | 2A StopGo | MARV entry inh | Cruzain noTriton | RE007 growth inh | NS1 inh | Lassa entry inh | Cruzain Triton | SARS PLpro yeast
COc1cccc2c1Oc1ncccc1N(C(=O)CCC(=O)NCc1cccc(C)c1)C2 | -6% | . | . | 2% | 0% | . | . | 32%
Cc1ccc(NC(=O)CN2CCOCC2)cc1C | 15% | 1% | . | -7% | 14% | 9% | . | -4%
CN1CCc2c(OCc3ccc(F)cc3)cccc2C1=O | -9% | -21%[46.1 µM] | . | 5% | . | -19% | . | -3%
CCOP(=O)(/C(C#N)=C(/O)c1ccccc1)c1ccccc1 (configuration not stated) | 2% | 18%[46.1 µM] | . | 2% | -5% | -19% | . | 0%
COc1ccc(OCCSc2nnc(Cc3cccc4ccccc34)n2N)cc1 | -36% | ? | 14% | -10% | -51% | ? | 0.8% | -38%
O=C(Cc1ccc(S(=O)(=O)N2CCOCC2)s1)NCCC(c1ccccc1)c1ccccc1 | -23% | ? | ? | 5% | 0% | ? | -5.1% | -10%
COCCCn1c(=O)c2ccccc2n(CC(=O)NCCC2=CCCCC2)c1=O | -14% | 0%[46.1 µM] | . | -4% | -1% | 2% | . | -3%
O=C1CC(c2ccccc2)Cc2[nH]c(=O)c(C(=O)Nc3ccc(OC(F)(F)F)cc3)cc21 (configuration not stated) | -12% | 3%[46.1 µM] | 1% | . | . | 4%[46.1 µM] | -3.5% | .
